From PubChem BioAssay
GIV Gai3 FP = blocks GIV peptide binding to rat Galpha-i3. P08753. Galpha-i3/FITC-GIV peptide fluorescence polarization, 90 min; hits give low values; scaled: aluminum fluoride 0%, vehicle 100%. percent of control (FP), % (no concentration beside the values). actives 0.42% (n = 210,000). AID 1224905;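 active = replicate mean at 85% of control or lower, very high polarization wells dropped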;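 also: wells of about 15 µL received 100 nL stock; the first replicate is given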
Target sequence (P08753 whole entry, looked up): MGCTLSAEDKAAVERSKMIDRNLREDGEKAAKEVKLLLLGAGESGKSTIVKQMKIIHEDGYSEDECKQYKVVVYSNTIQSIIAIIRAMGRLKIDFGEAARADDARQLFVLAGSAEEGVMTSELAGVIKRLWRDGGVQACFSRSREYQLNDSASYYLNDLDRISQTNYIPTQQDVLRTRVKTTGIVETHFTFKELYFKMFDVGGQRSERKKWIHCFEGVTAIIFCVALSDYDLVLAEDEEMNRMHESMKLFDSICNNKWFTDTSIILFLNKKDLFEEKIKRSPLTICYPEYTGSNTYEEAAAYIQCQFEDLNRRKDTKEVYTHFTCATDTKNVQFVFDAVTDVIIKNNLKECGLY
HCMV UL50-53 inh = disrupts HCMV UL50-UL53 complex binding. inhibition, % (no concentration beside the values). HTRF UL50-UL53 interaction, normalized percent inhibition. actives 0.15% (n = 190,000);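 active = both replicates at 50% or more, plus weaker picks with an unusually low signal ratio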;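 also: stock transfer was 100 nL into about 20 µL; 0% = negative control wells and 100% = wells with untagged competitor protein; inactives centre near -12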
Sa growth 42C = S. aureus growth inhibition; S. aureus RN4220 growth, OD600, 20 h, 42 °C; hits give low values; relative growth, % (concentration not given with the values); actives 0.53% (n = 170,000);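 active = growth at 42 °C up to 50% and 20 or more points under that at 30 °C, or under 10% at both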;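 also: 300 nL library stock went into each well; scaled to the means of positive and negative controls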
Sa growth 42C second temp = further read-out of Sa growth 42C, marked with its call; relative growth, %; measured here: growth at 30 °C;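 optical density after 20 h as mean of two plates; 100% = untreated growth and lower means inhibition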
Numbers without * were called inactive; nt = no result given.

SMILES	GIV Gai3 FP	HCMV UL50-53 inh	Sa growth 42C	Sa growth 42C second temp
Cc1cccc(NC(=O)CCn2c(=O)oc3ccccc32)c1	102	4	91	82
Cc1ccc(-c2noc(-c3ccc(NCc4ccco4)c([N+](=O)[O-])c3)n2)cc1	103	11	98	96
COc1ccc(Cn2c(C(=O)O)c(CNCCc3cc(OC)ccc3OC)c3ccc(C)cc32)cc1	115	nt	136	65
O=C(NC1CCCc2ccccc21)c1ccc(CS(=O)c2ccc(Br)cc2)o1 (stereo unspecified)	100	nt	138	87
COc1ccc(-c2nc(C(=O)Nc3cccc(C(C)=O)c3)nn2-c2ccc(Cl)cc2)cc1	105	6	105	83
N#Cc1ccccc1NC(=O)CSc1nc(-c2cccs2)cc(C(F)(F)F)c1C#N	99	-16	nt	nt
O=C(O)c1ccc(-n2[nH]c(=S)sc2=S)cc1	nt	-13	94	91
CC(C)(C)C(=O)C1C2CCC1C(O)C2 (stereo unspecified)	nt	-5	103	84
CC1CCN(C(=O)C2Cc3ccccc3CN2S(=O)(=O)c2ccc(F)cc2)CC1 (stereo unspecified)	nt	-15	136	81
CCCCNS(=O)(=O)c1ccc2nc(-c3cccnc3)cc(C(=O)NC(C)C)c2c1	100	nt	109	81
COc1c(F)c(F)c(C(=O)O)c(Nc2ccc(C)cc2C)c1F	96	nt	98	79
Cn1nc(C(=O)NCc2ccccc2)c2c1CCN(C(=O)c1ccccc1)C2	107	-37	nt	nt
CCn1c(=O)/c(=C\c2ccc(Cl)cc2)s/c1=C(/C#N)c1nc2ccccc2n1C	nt	25	90	89
O=C(Cc1ccc(Cl)cc1)Nc1ccc2oc(-c3ccccc3F)nc2c1	113	-27	101	101
Cc1noc2nc(-c3cccnc3)cc(C(F)(F)F)c12	nt	-17	95	66
CCc1cccc(NC(=O)CCc2nc3cccnc3n2-c2ccccc2)c1	105	-30	107	86
CC1SC(/N=C/c2ccc(N(C)C)cc2)=NNC1=O (stereo unspecified)	nt	-11	117	93
CC(=O)N1N=C(c2cccs2)CC1c1cn(-c2ccccc2)nc1-c1ccccc1 (stereo unspecified)	108	-15	nt	nt
CCCCNC(=O)c1cnn2c(C)c(Cc3c(C)cc(C)cc3C)c(C)nc12	112	nt	90	101
O=C(C1=NOC2(C(=O)c3ccccc3C2=O)C1c1ccccc1)c1ccccc1 (stereo unspecified)	98	-25	92	85
CC(C)=C1C2C=CC1C1C(=O)N(c3ccc(Br)cc3[N+](=O)[O-])C(=O)C21 (stereo unspecified)	103	-8	nt	nt
COc1ccc(CCNC(=O)Nc2ccc(Cl)cc2)cc1OC	nt	7	66	81
CC1=CC(C)(C)NC(=S)N1C(C)c1ccccc1 (stereo unspecified)	nt	-9	84	86
COc1ccc(OC)c(-c2nc3c(C#N)c[nH]n3c2NC2CCCCC2)c1	105	0	88	89
CCc1ccccc1N1CC(c2nnc(NC(=O)c3c(-c4ccccc4)noc3C)s2)CC1=O (stereo unspecified)	103	-9	nt	nt
COC(=O)C1=CN(CC2CCCO2)C=C(C(=O)OC)C1c1ccccc1 (stereo unspecified)	nt	6	97	97
Cc1ccc(C(C)C)c(OCC(=O)NCC2(N3CCOCC3)CCCCC2)c1	100	-11	84	46
Cc1ccc(NNC(=O)c2cccnc2Oc2ccccc2)cc1	104	-28	93	86
CCOc1ccc(CNC(=O)c2cc3c(=O)n(C)c4ccccc4c3s2)cc1	103	-24	97	92
COc1ccc(-c2ccc(=O)n(CC(=O)Nc3ccc(C)cc3C)n2)cc1	105	nt	107	92

Compound profiles (already shown). Order of screens: GIV Gai3 FP | HCMV UL50-53 inh | Sa growth 42C | Sa growth 42C second temp
`CC(C)=C1C2C=CC1C1C(=O)N(c3ccc(Br)cc3[N+](=O)[O-])C(=O)C21` (stereo unspecified) across the screens: 103 | -8 | nt | nt
`CCc1ccccc1N1CC(c2nnc(NC(=O)c3c(-c4ccccc4)noc3C)s2)CC1=O` (stereo unspecified) across the screens: 103 | -9 | nt | nt
`COc1ccc(OC)c(-c2nc3c(C#N)c[nH]n3c2NC2CCCCC2)c1` across the screens: 105 | 0 | 88 | 89
`COc1ccc(CCNC(=O)Nc2ccc(Cl)cc2)cc1OC` across the screens: nt | 7 | 66 | 81
`Cc1ccc(NNC(=O)c2cccnc2Oc2ccccc2)cc1` across the screens: 104 | -28 | 93 | 86

(further entries)
SMILES	GIV Gai3 FP	HCMV UL50-53 inh	Sa growth 42C	Sa growth 42C second temp
CCC(C)C(NC(=O)c1ccccc1NC(=O)c1ccc(OC)cc1)C(=O)N1CCOCC1 (stereo unspecified)	nt	-25	73	93
N#Cc1cnc2cc(-c3cccs3)nn2c1N	104	-5	113	84
O=C(c1ccc2c(=O)n3c(nc2c1)CCCCC3)N1CCCCC1	105	-13	97	90
CCOc1ccc(C(=O)Nc2c(C)nc3nc[nH]n3c2=O)cc1OCC	99	0	90	91
Cc1ccc(CCNC(=O)CCCn2c(=O)c3cccn3c3ccc(F)cc32)cc1	100	-16	87	55
Cc1ccc(Cn2ccsc2=NC(=O)COC(=O)c2ccc(-n3cnnn3)cc2)cc1	nt	-3	90	88
OCCN1CCN(c2nc(-c3ccccc3)c3cc(Cl)ccc3n2)CC1	107	-69	129	103
COc1ccc(Nc2nc3nonc3nc2Nc2ccc(OC)cc2)cc1	101	1	nt	nt
COCCOC(=O)C1=C(N)OC2=C(C(=O)CC(C)(C)C2)C1c1ccccc1[N+](=O)[O-] (stereo unspecified)	97	-37	nt	nt
c1cc(CNC2CCCC2)n(-c2nnc(N3CCCC3)s2)c1	106	-11	nt	nt
O=C(CCC1COc2ccccc2O1)Nc1ccc(C(=O)N2CCCC2)cc1 (stereo unspecified)	108	1	114	94
COc1ccc(S(=O)(=O)N2CCN(c3nc4ccccc4n4cccc34)CC2)cc1Cl	98	-19	nt	nt
Cc1cc(NC(=O)c2cccc(S(=O)(=O)N3CCOCC3)c2)no1	nt	-1	93	104
CCN(c1ccccc1)S(=O)(=O)c1cnc[nH]1	98	-2	103	90
O=C(Cn1c(=O)oc2ccc(C(=O)N3CCCC3)cc21)NC1CCCC1	114	-10	nt	nt
O=c1[nH]c2ccccc2c2nc(-c3ccccc3)nn12	106	nt	116	75
O=C(O)CNC(=O)/C=C\c1ccccc1	106	-43	109	91
COc1ccc(C2CC(=O)N(c3ccc(C(C)C)cc3)C(=O)C2)cc1	104	-43	nt	nt
COc1ccc(C2NC(=O)NC(C)=C2C(=O)OC2CCCC(C)C2)cc1Br (stereo unspecified)	111	5	nt	nt
Cc1cc(=O)n2nc(N3CCC(C(=O)Nc4ccc(Br)c(C)c4)CC3)sc2n1	106	-17	108	92
O=C(NCCc1cccs1)N1CCN(C2c3ccccc3-c3ccccc32)CC1	105	12	120	99
CC(C)N(Cc1nc(-c2ccccc2)no1)C(=O)c1ccc2c(c1)OCO2	103	-7	94	91
COC(=O)C1=C(C)NC2=C(C(=O)CCC2)C1c1sccc1C (stereo unspecified)	99	-25	107	84
CC(Sc1nc2ccccc2[nH]1)c1nc2ccccc2c(=O)[nH]1 (stereo unspecified)	124	-9	95	95
CC(=O)Oc1ccc2occ(C(=O)c3ccc(Cl)cc3)c2c1	96	5	86	80
O=C1COc2ccc(S(=O)(=O)N3CCCC3C(=O)N3CCN(c4ccccc4F)CC3)cc2N1 (stereo unspecified)	102	1	nt	nt
Cc1ccc(C2(c3ccc(C)cc3)NC(=O)N(Cc3c(C)noc3C)C2=O)cc1	nt	-10	96	80
CCOC(=O)/C=C(\C)Nc1ccc(CC)cc1	105	nt	92	86
CCOC(=O)c1ccc(NC(=O)NC2CC3CCC(C2)N3C(=S)NCc2ccco2)cc1 (stereo unspecified)	105	6	109	63
CCOc1ccc(NC(=O)CC(C)Cc2cc(C)cc(C)c2)cc1 (stereo unspecified)	nt	0	97	115
Cc1csc(NC(=O)NCC2CCCC(CNC(=O)Nc3nc(C)cs3)C2)n1 (stereo unspecified)	nt	-27	95	84
S=c1[nH]c(-c2ccccc2)cn1/N=C/c1ccc(N2CCOCC2)cc1	nt	-2	108	105
NC(=O)Cn1cc(C(=O)c2cccs2)c2ccccc21	105	-8	93	70
CCC(=O)NNc1ncnc2c1cnn2C	100	16	96	99
N=C(N)c1ccc(N)cc1	102	-23	nt	nt
CCn1c(=O)c(C(=O)Nc2ccc(F)cc2)c(O)c2ccccc21	103	-28	nt	nt
COc1cc2nc(CN3CC(C)OC(C)C3)[nH]c(=O)c2cc1OC (stereo unspecified)	nt	6	96	95
COc1ccc(NC(=O)C2CCN(c3nc(C)nc4c3CCC4)CC2)cc1	99	-8	78	92
Cc1cc(C)c(C(=O)/C=C(\N2CCCC2)C(F)(F)F)c(=O)[nH]1	105	nt	85	92
Cc1cccc(CC(=O)NCCc2sc(-c3ccc(F)cc3)nc2C)c1	102	8	nt	nt
O=C(O)CSc1nn(-c2ccccc2)c(=S)s1	nt	-15	104	95
CC(CNC(C)c1ccccc1)C(=O)O (stereo unspecified)	103	-4	106	100
O=C(c1cc[n+]([O-])cc1)N1CCCCCC1	nt	2	98	98
COC(=O)c1sccc1-c1ccc(-c2ccn[nH]2)o1	106	-21	113	73
Cn1c(=O)c(=O)n(C)c2cc(S(=O)(=O)CCC(=O)N3CCOc4ccccc43)ccc21	105	-24	102	91
CC1=C(C(=O)Nc2ccc(C)cc2C)C(c2cccs2)n2nc(SCc3ccccc3Cl)nc2N1 (stereo unspecified)	101	-97	97	99
CCNC(=O)c1cccc(OC)c1	nt	-17	88	82
CCOC(=O)c1c[nH]c2cc(F)cc(F)c2c1=O	102	-25	78	85
Cc1ccc(OCc2nnc(SCC(=O)Nc3ccc4c(c3)OCO4)n2C(C)C)c(C)c1	96	nt	84	65
CCOC(=O)/C=C1\CC(=O)Nc2cc(C)c(C)cc2N1	94	nt	105	85
(continued)
SMILES	GIV Gai3 FP	HCMV UL50-53 inh	Sa growth 42C	Sa growth 42C second temp
O=C(NN=c1c(=O)c2ccccc2c1=O)c1ccncc1	77*	28	96	51
O=C(c1cc(-c2ccc3c(c2)OCO3)on1)N1CCCC1c1ccc(Cl)cc1 (stereo unspecified)	104	-32	nt	nt
CCOc1ccccc1C(=O)N1CCCCC1CCN1CCOCC1 (stereo unspecified)	103	-34	88	79
N#Cc1ccc(CO/N=C(\N)c2ccccc2)cc1	nt	-11	87	87
COC(=O)C1CCN(C(=O)c2cn(C)c3c(=O)n(-c4ccc(Cl)cc4)c(=O)[nH]c23)CC1	105	-28	nt	nt
CCOC(=O)C1C(=O)Oc2ccc(Br)cc2C1C1(C(=O)OC)CCCC1 (stereo unspecified)	101	-10	96	55
NC(=O)CNC(=O)CSc1ccccn1	103	4	106	97
COc1ccc(-c2csc(C(C#N)=C3CCCCC3)n2)cc1	nt	-11	102	88
O/N=C1/C2CC3C1C14CC(C2/C1=N\O)C34 (stereo unspecified)	109	11	98	98
CC(C)C(=O)N1CCC(=O)Nc2ccccc21	107	-9	nt	nt

A few values from above:
COC(=O)C1CCN(C(=O)c2cn(C)c3c(=O)n(-c4ccc(Cl)cc4)c(=O)[nH]c23)CC1 – GIV Gai3 FP = 105
NC(=O)CNC(=O)CSc1ccccn1 – HCMV UL50-53 inh = 4

Continued.
SMILES	GIV Gai3 FP	HCMV UL50-53 inh	Sa growth 42C	Sa growth 42C second temp
N=C1/C(=C/c2ccc(SCc3ccccc3)o2)C(=O)N=C2SC=CN12	150	nt	128	35
COC(=O)C1=C(C)Nc2c(c(=O)n(C)c(=O)n2C)C1c1cccc(OCc2ccccc2)c1 (stereo unspecified)	107	nt	94	71
C=CCNc1ncnc2ccccc12	109	3	100	97
CC(OC(=O)c1cccnc1SC(C)C(N)=O)C(N)=O (stereo unspecified)	nt	-14	95	91
COC(=O)Cn1cc(C(=O)C2CC2)c2ccccc21	104	-1	81	88
COc1ccc(Cl)cc1NS(=O)(=O)N(C)C	102	-21	92	82
COC(=O)c1ccc2c(c1)C(=O)N(C1CCCCC1)C2=O	103	-14	102	119
O=C(O)Cn1cnc2ccccc2c1=O	105	12	74	93
Cc1ccc(Cl)cc1NC(=O)C(=O)NCCc1sc(-c2ccc(F)cc2)nc1C	105	nt	92	91
O=C(Nc1ccc(N2CCN(C(=O)c3ccccc3)CC2)cc1)c1ccccc1	100	-30	100	75
COc1ccc(-n2c(C)cc(CNS(=O)(=O)c3ccc(OC)c(Cl)c3)c2C)cc1	116	0	nt	nt
COc1cccc(CCNC(=O)c2c(O)nc3c(C)cccn3c2=O)c1	100	6	88	94
Cc1nn(-c2ccccc2)c(OC(=O)c2ccccc2F)c1S(=O)(=O)c1ccccc1	104	0	101	85
COc1ccc(C)cc1NC(=O)CSC1CCCC1	nt	-24	95	96
Cc1cccc(N2C(N)=NC(N)=NC23CCCCC3)c1	93	nt	92	76
CCCCCC(=O)Nc1cc2c(cc1C(=O)O)OCCO2	nt	-32	129	78
O=C(Cn1nnc(-c2ccncc2)n1)NCCc1ccccc1	110	-4	116	90

A draw from above in order of SMILES length, low to high.
SMILES	GIV Gai3 FP	HCMV UL50-53 inh	Sa growth 42C	Sa growth 42C second temp
CCCCCC(=O)Nc1cc2c(cc1C(=O)O)OCCO2	nt	-32	129	78
COc1cccc(CCNC(=O)c2c(O)nc3c(C)cccn3c2=O)c1	100	6	88	94
COc1ccc(-n2c(C)cc(CNS(=O)(=O)c3ccc(OC)c(Cl)c3)c2C)cc1	116	0	nt	nt
